# 2A StopGo: lowers the luciferase signal of an FMDV 2A StopGo reporter; 410,000 compounds, 1.2% hits; human cells with a luciferase reporter of 2A StopGo recoding; control for the full effect not named in the record; Potency, µM (doses to about 57.9 µM), without a hit: at the top dose signal change, negative = less light; active = well fitted falling curve with a large enough effect; inconclusive = small, poorly fitted or top-dose-only effect; inactive = no such curve, though single readings can be large or run the other way; tested in HEK293T cells; note: % is set by controls: 0 for no effect and ±100 for the full control effect; nearly all actives have a fitted effect of over 45% in size; luciferase light after 4 h
# MARV entry inh: inhibitors of Marburg virus binding or cell entry; Marburg virus pseudotyped entry inhibition, cell reporter; control for the full effect not named in the record; about a third of the inactives were read at about 46 µM; Potency, µM (titrated, usually from 37.8 µM), for inactives: at the top dose activity change, negative = inhibition, actives largely listed as inhibitors; 300,000 compounds, 1.8% hits; AID 540276; active = well fitted inhibition curve with a large enough effect; inconclusive = small, poorly fitted or top-dose-only effect, or effect the other way; inactive = flat fitted curve, though single readings scatter; tested in HEK293 cells; about a fifth of its hits are not listed in these tables; note: % is set by controls: 0 for no effect and ±100 for the full control effect; luciferase read-out
# NS1 function inh: inhibitors of influenza NS1 protein function; S. cerevisiae slowed by influenza A NS1, growth recovery by OD600; 270,000 compounds, 0.4% hits; Potency, µM (doses to about 46.1 µM), for the others: at the top dose activity, positive = more growth; note: actives are rising curves; nearly all actives have a fitted effect of over 50% in size
#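 Compounds were scored for reversing the slow growth caused by influenza A NS1 in S. cerevisiae, measured by optical density at 600 nm. Assay medium contained 2% galactose at pH 6.0; NS1-free yeast of the same strain were the positive control.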
# SARS PLpro yeast: SARS-CoV PLP inhibition in yeast; Potency, µM (doses to about 32.9 µM), for inactives: at the top dose activity, positive = growth rescue; 330,000 compounds, 0.19% hits; S. cerevisiae expressing SARS-CoV PLpro, growth rescue; control for the full effect not named in the record; note: 0% is about no effect; nearly all actives have a fitted effect of over 55% in size; growth read by luminescence after 48 h
# RE007 growth inh: less growth of the S. pombe RE007 Vpr strain; S. pombe RE007 Vpr strain, BacTiter-Glo ATP luminescence, 24 h; control for the full effect not named in the record; AID 651644; 360,000 compounds, 0.21% hits; Potency, µM (highest dose often 92.2 µM), for the others: at the highest dose activity change, negative = less growth; active = well fitted falling curve with a large enough effect; inconclusive = small, poorly fitted or top-dose-only effect; inactive = no such curve, though single readings can be large or run the other way;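 note: % is set by controls: 0 for no effect and ±100 for the full control effect; nearly all actives have a fitted effect of over 50% in size; the assay follows cell death caused by Vpr and the record does not say whether a fall means rescue or toxicity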
#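 Fission yeast strain RE007, carrying one chromosomally integrated HIV-1 vpr copy, was seeded at OD 0.01 in PMG+AL medium with 23 nL pinned compound. After 24 h at 30 °C and 99% humidity, viability was read by BacTiter-Glo luminescence.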
# Cruzain Triton: inhibitors of Trypanosoma cruzi cruzain with detergent | P25779 | purified cruzain, Z-FR-AMC fluorescence, 0.01% Triton | Potency, µM, for inactives: max response, negative = inhibition, hits mostly inhibitors | 200,000 compounds, 0.43% hits | AID 1478; active = well fitted curve in the direction sought with a large enough effect; inconclusive = small, poorly fitted or top-dose-only effect, or another doubt; inactive = no such curve, though single readings can be large; an effect the other way counts as inactive or inconclusive;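 note: plate controls were neutral wells for no effect and buffer without enzyme for full effect; nearly all actives have a fitted effect of over 40% in size; top concentration of the series not given in the record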
# Target sequence (P25779 123-467 limits assumed): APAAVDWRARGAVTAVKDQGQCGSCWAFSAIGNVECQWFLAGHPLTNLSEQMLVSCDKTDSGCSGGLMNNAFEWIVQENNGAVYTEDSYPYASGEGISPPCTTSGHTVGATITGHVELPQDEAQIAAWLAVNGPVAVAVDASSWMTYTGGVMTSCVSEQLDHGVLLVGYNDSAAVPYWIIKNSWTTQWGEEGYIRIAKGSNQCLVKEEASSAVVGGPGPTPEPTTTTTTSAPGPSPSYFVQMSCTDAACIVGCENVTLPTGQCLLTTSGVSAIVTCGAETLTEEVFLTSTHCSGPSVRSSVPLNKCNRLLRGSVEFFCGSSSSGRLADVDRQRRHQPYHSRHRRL
#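 Sodium acetate buffer (100 mM, pH 5.5) containing 5 mM DTT and 0.01% Triton X-100 hosted 1.5 nM cruzain and test compound for 15 min at room temperature. Cleavage of 2 uM Z-FR-AMC was then tracked by fluorescence.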
# Cruzain noTriton: blocks cruzain activity in detergent-free assay | purified cruzain, Z-FR-AMC fluorescence, no detergent | P25779 | 200,000 compounds, 2.3% hits | Potency, µM, for the others: max response, negative = inhibition, most hits filed as inhibitors; active = well fitted curve in the direction sought with a large enough effect; inconclusive = small, poorly fitted or top-dose-only effect, or another doubt; inactive = no such curve, though single readings can be large; an effect the other way counts as inactive or inconclusive;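 note: plate controls were enzyme without inhibitor for no effect and buffer without enzyme for full effect; nearly all actives have a fitted effect of over 40% in size; top concentration of the series not given in the record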
#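 Purified cruzain at 1.5 nM, pre-incubated 15 min with compound at room temperature in 100 mM sodium acetate pH 5.5, 5 mM DTT, 0.00005% Triton X-100. Reaction started with 2 uM Z-FR-AMC; AMC fluorescence increase over 60 s gives rate.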
# Lassa entry inh: blocks Lassa virus binding to or entry into cells. 300,000 compounds, 1.2% hits. Lassa virus pseudotype entry inhibition, cell reporter; control for the full effect not named in the record. AID 540256. Potency, µM (titrated, usually from 37.9 µM), without a hit: top-dose activity change, negative = inhibition, usual class: inhibitors; active means well fitted inhibition curve with a large enough effect; inconclusive means small, poorly fitted or top-dose-only effect, or effect the other way; inactive means flat fitted curve, though single readings scatter; tested in HEK293 cells; note: % is set by controls: 0 for no effect and ±100 for the full control effect; nearly all actives have a fitted effect of over 50% in size; luciferase read-out
# * = called active by the depositor; u = inconclusive; x = not tested or not shown; & = joins results of further samples; [ ] = another dose, or the depositor's remark. Unless noted, calls come from the whole dose curve; as a rule, active means well fitted rising curve with a large enough effect; inconclusive means small, poorly fitted or top-dose-only effect; inactive means no such curve, though single readings can be large or run the other way. Potency is the fitted concentration of half-maximal effect.
Compound	2A StopGo	MARV entry inh	NS1 function inh	SARS PLpro yeast	RE007 growth inh	Cruzain Triton	Cruzain noTriton	Lassa entry inh
O=C(NC1CCCN(Cc2ccc(Cl)cc2)C1)c1ccnc(Cl)c1 (configuration not stated)	-11.0%	u	14.1%	0.7%	22.0%	x	x	-15.1%[46.1 µM]
CCOc1ccccc1NC(=O)CN(C)S(=O)(=O)c1ccc(OC)c(C)c1	x	-19.7%	-48.9%	-13.5%	15.5%	-3.1%	-3.5%	-15.3%
Cc1cccc(C)c1NC(=S)N(c1ccccc1)C(C)C	-27.5%	-5.9%	6.0%	0.8%	4.5%	-1.6%	-4.5%	-4.7%
O=C1NC2C(O)C(O)C(O)C(O)C2c2cc3c(c(O)c21)OCO3 (configuration not stated)	u	u	x	x	9.7%	x	x	0.141µM*
Nc1nc(CCl)nc(Nc2ccc3ccccc3c2)n1	-25.7%	u	1.8%	-0.8%	12.7%	x	x	3.98µM*
Cc1ccc(S(=O)(=O)CC(c2ccccc2)N2CCCCC2)cc1 (configuration not stated)	6.2%	1.9%[46.1 µM]	-5.3%	2.2%	-8.1%	x	x	-9.9%[46.1 µM]
O=C(NCc1ccccc1)c1onc(CSc2nc3ccccc3[nH]2)c1C(=O)NCc1ccccc1	-0.9%	x	3.5%	0.2%	-11.9%	x	x	x
O=S(=O)(Nc1ncnc2sc3c(c12)CCC3)c1ccc(Cl)s1	-2.1%	-14.3%&-14.3%	16.0%	-21.4%	1.0%	-16.8%	-26.2%	3.8%
O=C(C1CC1)n1cc(C(=S)N2CCOCC2)c2ccccc21	-9.2%	0.4%	-0.2%	-1.9%	1.9%	-0.9%	-6.7%	4.8%
CC1(C)CC(=O)c2cc(C#N)c(=O)n(-c3ccc(Cl)cc3)c2C1	10.3%	2.1%[46.1 µM]	x	x	x	-4.1%	3.7%	27.4%[46.1 µM]
COc1ccccc1NC(=O)C(C)NS(=O)(=O)c1ccc(Cl)cc1 (configuration not stated)	-14.4%	1.2%	5.1%	-5.1%	8.2%	-3.7%	5.5%	-23.2%
CSCCC(C(=O)OCC(=O)c1ccc(C)c(C)c1)N1C(=O)c2cc(Cl)c(Cl)cc2C1=O (configuration not stated)	9.7%	u	5.3%	-2.2%	4.2%	2.2%	-27.4%	-9.7%
Cc1ccc2[nH]c3c(c2c1)CN(C(=O)CN1C[C@H]2C[C@@H](C1)c1cccc(=O)n1C2)CC3	-13.7%	x	4.5%	0.4%	13.2%	x	x	x
CCCCn1c(O)c(C(C)=NC(C)c2ccccc2)c(=O)[nH]c1=O (configuration not stated)	-6.7%	-3.9%	-104.9%	-5.2%	23.0%	-1.6%	8.3%	u
COC(=O)c1sccc1NN1C(=O)c2ccccc2C1=O	0.8%	u	-1.2%	0.3%	43.8%	x	x	16.7%
Cc1ccc(OCC(=O)NNc2c3ccccc3nc3ccccc23)cc1	u	u	-8.0%	-23.3%	8.6%	-9.3%	16.7%	u
CCOC(=O)c1ccc(NC(=O)c2ncn(-c3ccccc3)n2)cc1	8.3%	7.3%[46.1 µM]	x	x	x	-1.3%	-1.2%	29.5%[46.1 µM]
Fc1ccc(-n2c(-c3ccco3)nc3nc4ccccc4nc32)cc1	-6.6%	11.2%	7.1%	4.9%	-6.1%	14.7%	u	2.9%
CN(CC(=O)Nc1ccccc1Br)C(=O)CCc1ccccc1	28.7%	4.2%[46.1 µM]	-4.0%	1.7%	0.8%	x	x	-6.3%
CCCCCCOc1ccc(N2C(=O)CC(NCCc3ccc(S(N)(=O)=O)cc3)C2=O)cc1 (configuration not stated)	-23.9%	15.5%	-49.3%	-18.2%	-2.6%	0.0%	4.1%	10.9%
Cc1cc(=O)oc2cc(OC(=O)CCCCCN3C(=O)c4ccccc4C3=O)ccc12	5.2%	-12.4%	-2.4%	1.1%	-17.9%	-16.7%	17.1%	u
O=C(C1CC(c2ccc(F)cc2)=NO1)N1CCN(c2ccccc2)CC1 (configuration not stated)	-27.3%	x	-1.8%	-2.2%	11.0%	-5.3%	u	x
Cc1ccc(-n2nnc3c(SCC(=O)NCc4ccco4)ncnc32)cc1	-0.5%	-20.9%	4.9%	-10.3%	8.7%	-3.9%	-2.8%	-26.1%
COC(=O)Nc1nnc(Cc2ccccc2)s1	10.6%	-2.3%	-0.8%	-5.1%	-15.1%	1.8%	2.5%	2.7%
CCOCCn1ccc2c(OCC(=O)Nc3ccc(OC)c(OC)c3)cccc2c1=O	25.1µM*	u	x	0.2%	-10.8%	x	x	-9.5%
CCc1nc2ccccc2n1CC(O)COCC1CC=CCC1 (configuration not stated)	u	x	-2.3%	0.1%	4.7%	x	x	x
CCCCNc1cc(Cl)nc(N)n1	-5.2%	-13.6%[46.1 µM]	-3.2%	0.6%	-5.1%	x	x	7.9%
CCc1ccc(N2CC(C(=O)N/N=C/c3ccccc3OC)CC2=O)cc1 (configuration not stated)	3.3%	1.2%[46.1 µM]	-10.4%	-3.0%	-2.1%	x	x	u
Cc1cc(C)c(C#N)c(SCc2ccc3c(c2)OCO3)n1	-23.9%	-22.7%[46.1 µM]	-11.5%	-4.4%	-15.1%	-3.8%	3.9%	-17.1%
O=C(COc1ccccc1Cl)Nc1ccc2nc(SCC(=O)N3CCOCC3)sc2c1	u	u	x	x	x	-2.9%	-1.9%	2.8%[46.1 µM]
CCOC(=O)c1ccccc1NC(=O)Cc1c(C(=O)O)n(C)c2ccccc12	-9.4%	1.0%[46.1 µM]	13.6%	0.3%	7.6%	x	x	-2.2%[46.1 µM]
COc1ccc(-c2[nH]ncc2CNCCn2cccn2)c(F)c1	-20.9%	x	0.9%	1.3%	15.0%	x	x	x
Cc1ccc(C)c(OCCC(=O)Nc2cccc(S(=O)(=O)N3CCCCC3)c2)c1	-20.5%	u	x	5.1%	26.3%	x	x	u
CCOc1cc(C)c(Cl)cc1S(=O)(=O)N(C)C	-21.6%	-19.1%[46.1 µM]	-6.3%	1.4%	9.4%	6.0%	-11.0%	9.2%
CC(C)(C)c1cc(C(=O)CCN2CCOCC2)cc(C(C)(C)C)c1O	-14.7%	-1.1%	-61.0%	-9.3%	7.6%	x	x	-2.0%
CCOP(=O)(OCC)c1nc(-c2ccc(F)cc2)oc1NCc1ccccc1	-18.8%	x	3.2%	-1.4%	4.8%	x	x	x
CN(Cc1ccc(Cl)cc1)C(=O)c1cc(S(=O)(=O)N2CCOCC2)ccc1N1CCCC1	-11.2%	11.5%	x	1.2%	17.3%	x	x	-13.7%
O=C1C(Cc2c[nH]c3ccccc23)NC(=S)N1C1CCCCC1 (configuration not stated)	u	u	x	1.6%	-13.4%	x	x	x
CCCSc1nc(C)c(C(C)=O)cc1C#N	0.7%	6.9%	-108.6%	3.3%	-18.2%	-10.8%	-3.2%	16.8%
O=C(NCc1nnc(SCC(=O)N2CCN(c3ccccc3)CC2)o1)c1c(F)cccc1Cl	u	x	-18.1%	-2.4%	9.1%	x	x	x
O=C(C1COc2ccccc2O1)N(Cc1cccnc1)c1nc2c(Cl)cccc2s1 (configuration not stated)	-12.4%	x	x	x	x	-0.2%	-9.0%	10.7%[46.1 µM]
CCCOc1ccc(C(O)(CCC)CCN2CCCCC2)cc1 (configuration not stated)	0.0%	-28.9%	-10.9%	7.3%	-9.8%	-0.4%	-4.5%	u
CC1CCN(Cc2nnnn2CCCC(=O)N(C)C(C)c2ccccn2)CC1 (configuration not stated)	-5.5%	14.1%[46.1 µM]	8.5%	3.4%	-3.1%	x	x	u
CC(/C=N/NC(=O)c1ccccn1)=C\c1ccco1	36.8%[activator]	x	-7.1%	-2.0%	-16.1%	x	x	x
CCOC(=O)CS(=O)(=O)c1ccc(O)cc1	7.9%	0.4%[46.1 µM]	x	-0.8%	7.8%	x	x	-2.5%
CCOC(=O)c1c(-c2ccco2)csc1N	-21.8%	-2.0%	1.26µM*	3.0%	-20.7%	-7.1%	-5.6%	-0.3%
COc1cc(/C=N/N2CCN(c3ccccc3)CC2)ccc1OC(C)=O	16.2%	x	-1.7%	2.7%	-1.0%	x	x	x
CCOc1ccc2nc(N3CCC(C(=O)N4CCN(c5ccccn5)CC4)CC3)sc2c1	14.1µM*	5.7%	-35.6%	-11.2%	-1.8%	-2.5%	u	x
Cc1csc(NC(=O)CSc2nnc(-c3ccc(Cl)cc3)n2N)n1	-6.4%	2.7%	22.5%	19.7%	2.6%	-0.7%	-13.8%	12.1%
COc1cc(CN2CCN(c3ccccc3F)CC2)c([N+](=O)[O-])cc1OC	-22.2%	u	2.6%	16.6%	-15.3%	-3.9%	-6.1%	-1.0%
CCC(=O)Nc1ccccc1-c1nc2ccccc2n(CC(=O)c2ccc(C)cc2)c1=O	0.0%	-4.3%[46.1 µM]	x	x	x	-1.2%	2.6%	5.0%[46.1 µM]
Cc1ccc(OCCn2c(NC(=O)c3ccco3)nc3ccccc32)cc1	-18.8%	u	-7.0%	-4.4%	-3.2%	-8.2%	-5.9%	-4.1%
COC(=O)c1ccc(C(C(=O)NC2CCCCC2)N(C(=O)Cc2cccs2)C2CC2)cc1 (configuration not stated)	9.7%	-23.8%	21.6%	-0.6%	-2.9%[3.69 µM]	-0.1%	9.8%	-1.3%
CNc1nnc(-c2cc3cc(Cl)ccc3oc2=O)s1	45.3%[activator]	0.6%	2.0%	-5.5%	-2.6%	-4.5%	2.0%	u
Cc1ccc(C)c(NC(=O)CN(C)C(=O)c2cc(S(=O)(=O)N3CCOCC3)ccc2N2CCCC2)c1	12.3%	-0.8%	14.3%	2.0%	0.8%	x	x	5.7%
CCCCN(CC)CCNC(=O)c1cc2c(=O)n(CC)c3ccccc3c2s1	0.0%&-8.4%	u	-3.7%	0.7%	-10.2%	0.0%	1.4%	u
CCCNC(=O)c1cc(S(=O)(=O)N2CCCCC2)ccc1N1CCOCC1	-10.3%	-1.6%	x	2.4%	-0.4%	x	x	26.0%

# High-throughput results deposited in PubChem BioAssay by National Center for Advancing Translational Sciences (NCATS).
